S aureus helic: S. aureus DNA helicase inhibition | purified S. aureus helicase, fluorescence unwinding assay; about half of the hits fall short of the stated cut | inhibition, %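 (tested at about 80 µM)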 | 120,000 tested, 0.05% active;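 active means both duplicates at 50% or more, or one of them with a favoured structure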;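 further: 0% = mean of negative control wells and 100% = mean of positive control wells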
MgrA DNA FP: S. aureus MgrA-DNA binding modulation. inhibition, %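 (about 10 µg/mL by stock and volumes)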. 84,000 tested, 0.13% active. AID 602314. fluorescence polarization;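 active means above 50% in either of two replicates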;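 further: 0% = protein plus DNA without compound and 100% = DNA alone without protein; higher means less MgrA bound to DNA so lower polarization; one replicate is shown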
Active calls of the source: *; nt = no result given; & = joins results of further samples.

MgrA DNA FP | S aureus helic | Molecule
0.8 | 10.0 | COc1cccc(CNCC(O)Cn2nnnc2-c2ccccc2)c1 (stereo not drawn)
0.8 | nt | CCN(CC)CCN(C)CC1c2ccccc2Oc2ccccc21
nt | -22.0 | CCN1CCN(C(=O)C2c3ccccc3C(=O)N(Cc3ccc(F)cc3)C2c2ccc(OC)cc2)CC1 (stereo not drawn)
0.5 | nt | Nc1ccc(Sc2ccccc2Cl)cc1
-0.9 | 2.0 | CCN1CCCC1CNC(=O)c1cc(NC(C)=O)c(N(C)C)cc1OC (stereo not drawn)
nt | 5.0 | CC(C)C1CC(O)(C2(O)CCCCC2)ON1 (stereo not drawn)
-1.2 | nt | CNC(=O)c1ccccc1Sc1cccc2cccc(C(=O)NC)c12
-2.6 | nt | O=C(CSc1nc2ccccc2o1)N1CCC(n2cccc2)CC1
nt | -32.0 | CNC(=O)C1=C(C)NC(=O)NC1c1ccc(Cl)cc1 (stereo not drawn)
3.3 | -6.0 | CC1CCCN(CC(O)COCc2cccs2)C1 (stereo not drawn)
0.0 | nt | Cn1c(=O)cc(Nc2ccccc2)c2c(=O)n(-c3ccccc3)c(=O)n(-c3ccccc3)c21
-0.3 | nt | N#Cc1cccc(NC(=O)COCC(=O)O)c1
nt | 1.0 | COC(=O)c1c(OC)cc(C)nc1C
nt | -11.0 | Cc1oc2nc[nH]c(=O)c2c1C(=O)OC(C)C(=O)NC1CCCCC1 (stereo not drawn)
nt | 4.0 | CCc1ccc(NC(=O)Cn2c(C(=O)OC)cc3sccc32)cc1
0.2 | nt | COc1ccc2c(c1)c1nc3cc4ccccc4cc3nc1n2C(C)=O
1.0 | 1.0 | O=S(Nc1ccc2c(c1)OCCO2)C12CC3CC(CC(C3)C1)C2 (stereo not drawn)
nt | 0.0 | CCCN(S(=O)(=O)c1ccc(S(=O)(=O)N2CCCC2)cc1)S(=O)(=O)c1cccc(Cl)c1
nt | 4.0 | CS(=O)(=O)c1ccccc1-c1nnc(NC(=O)COc2ccc(Cl)cc2)o1
nt | 10.0 | COc1cc2c(cc1OC)CN(C(=O)CSc1nc3[nH]ncc3c(=O)n1-c1ccccc1)CC2
1.1 | 10.0 | CC(=O)Nc1cc(NC(C)=O)cc(C(F)(F)F)c1
nt | 11.0 | Cc1[nH]c2ccccc2c1CCn1c(N)cc(=O)[nH]c1=O
2.5 | -7.0 | O=c1oc2ccccc2cc1-c1nnc(-c2cccc(Cl)c2)o1
-1.4 | nt | O=C(NCc1ccc(Cl)cc1)c1ccc(-n2cccn2)nc1
nt | 16.0 | CC1CCN(C(=O)CSc2nnc3n2CCCCC3)c2ccccc2S1 (stereo not drawn)
1.4 | 14.0 | O=C1CCC(C2CCC3(CC2)OCCO3)CC1
nt | -3.0 | CNC(=S)N1CCn2cccc2C1c1ccc(F)cc1 (stereo not drawn)
nt | -3.0 | Cc1sc2nc(CN3CCOCC3)nc(N(C)Cc3ccccc3)c2c1C
nt | 14.0 | CSc1nnc2c(n1)OC1(Nc3ccccc3-2)C(=O)Nc2ccc(Cl)cc21 (stereo not drawn)
-0.3 | -8.0 | COc1cccc(CSc2nnc(-c3ccc(F)cc3)o2)c1
-4.0 | -2.0 | O=C(O)c1cc2c([nH]1)CCCC2
-0.5 | 7.0 | CNS(=O)(=O)c1ccc(F)cc1
0.2 | nt | NC(N)=NC(N)=Nc1cccc(Cl)c1Cl
3.5 | 1.0 | COc1ccc(/C=N\N2CCN(Cc3ccc(C)cc3)CC2)cc1OC
-3.0 | 16.0 | CCc1ccc(NC(=O)CCc2nc3cccnc3n2-c2ccccc2)cc1
-0.8 | nt | Cc1ccccc1Cn1cc(C)c(=O)[nH]c1=O
-3.1 | nt | C[C@]12C=CC(=O)C=C1CC[C@@H]1[C@@H]2[C@@H](O)C[C@@]2(C)[C@H]1CC[C@]2(O)C(=O)CO
-1.6 | 3.0 | Cc1[nH]cnc1CN1CCCCCCC1
7.6 | 8.0 | Cc1nc2cc(C(=O)NCCN(C)C)ccc2n1-c1ccccc1
0.5 | -2.0 | CCOc1ccccc1CNC(=O)c1cn(-c2cccc(OC)c2)c(=O)c2ccccc12
nt | -120.0 | CCOC(=O)N1CCN(c2cc(Nc3c(C)cc(C)cc3C)c3c4c(onc24)-c2ccccc2C3=O)CC1
nt | 3.0 | Cc1nc2cc(NC(=O)CCn3[nH]c(=O)ccc3=O)ccc2n1-c1ccccc1
nt | 19.0 | O=S(=O)(Nc1ccc(Cl)cc1OC(F)(F)F)C(F)(F)F
1.8 | -9.0 | COc1cc(-c2nc3c(C(C)(C)C)cc(C(C)(C)C)c(O)c3o2)ccc1O
2.0 | nt | Cc1c(NC(=O)CN2C(=O)S/C(=C\c3ccccc3)C2=O)c(=O)n(-c2ccccc2)n1C
nt | -5.0 | CCc1ccc(-c2cc(C)no2)cc1S(=O)(=O)N1CCN(c2ccccn2)CC1
1.6 | nt | O=S(=O)(c1cccc(C(F)(F)F)c1)n1cccc1
4.0 | 12.0 | CC(NC(=O)Cc1noc2ccccc12)c1ccccc1 (stereo not drawn)
1.0 | 11.0 | COc1ccc(Cn2c(=O)[nH]c3cc(C(=O)NCc4ccccc4)ccc3c2=O)cc1
-4.8 | 8.0 | CCCc1noc2c1C(c1cc(Br)ccc1F)C(C#N)=C(N)N2 (stereo not drawn)
nt | -6.0 | CC1CCC(C(=O)N2CCCC2C(=O)O)CC1 (stereo not drawn)
-1.1 | 2.0 | Nc1cc(Cl)ccc1C(=O)OCC(=O)N1CCCC1
3.2 | nt | CO/N=C(\C(=O)NC1C(=O)N2C(C(=O)OCOC(=O)C(C)(C)C)=C(/C=C\c3scnc3C)CSC12)c1csc(N)n1 (stereo not drawn)
-2.5&3.9 | nt | Nc1ccc(S(=O)(=O)NC(=O)c2ccccc2)cc1
nt | 30.0 | Cc1cccc(NCc2nnc(-c3ccccc3)o2)c1
4.0 | -9.0 | Nc1c(Nc2ccc(F)cc2)sc2c(O)cc(=O)[nH]c12
-1.8 | 9.0 | COC(=O)C1=C(C)SC(N)=C(C#N)C1c1ccc(OC(C)C)c(OC)c1 (stereo not drawn)
nt | 0.0 | COc1ccc2c(CSc3nnc(-c4cccs4)n3N)cc(=O)oc2c1
0.6 | -1.0 | S=C(NC1CCCCC1)N(Cc1ccccc1)Cc1ccccc1
-1.4 | 3.0 | CCn1nc(C)c(N=Cc2ccc(N(C)C)c(Br)c2)c1C

As a short view, some entries already given:
MgrA DNA FP | S aureus helic | Molecule
nt | -120.0 | CCOC(=O)N1CCN(c2cc(Nc3c(C)cc(C)cc3C)c3c4c(onc24)-c2ccccc2C3=O)CC1
nt | 3.0 | Cc1nc2cc(NC(=O)CCn3[nH]c(=O)ccc3=O)ccc2n1-c1ccccc1

(list continues)
MgrA DNA FP | S aureus helic | Molecule
nt | 4.0 | CC1(C)Cc2nc3sc4c(N5CCNCC5)ncnc4c3cc2CS1
nt | -1.0 | CCS(=O)(=O)N1Cc2ccccc2CC1C(=O)OCC(=O)Nc1ccc(C(F)(F)F)cc1 (stereo not drawn)
nt | -16.0 | N#C/C(=N\O)c1nc(-c2ccc(F)cc2)cs1
nt | 10.0 | Cc1noc(C(=O)NCCc2ccccc2)c1Cl
-3.1 | 7.0 | Cc1nnc(NCCCO)[nH]c1=O
3.8 | -6.0 | CC(NC(=O)CSc1nc2ccc(N=Cc3ccccc3O)cc2s1)c1ccccc1 (stereo not drawn)
17.2 | -3.0 | CCC1(C(=O)OC)NC(c2ccc(OC)cc2)C2C(=O)N(C)C(=O)C21 (stereo not drawn)
0.7 | -1.0 | CC(NC=O)c1nc2ccccc2n1C/C=C/c1ccccc1 (stereo not drawn)
3.8 | -13.0 | CN(C)S(=O)(=O)c1ccccc1
-3.0 | nt | CCCCn1c(=O)cc(O)c2ccccc21
0.5 | 6.0 | O=C(Cn1ncc2ccccc21)NCCc1ccccc1
nt | 7.0 | COc1cc(COC(=O)c2ccc3c(c2)NC(=O)C2CCCN32)ccc1OC(F)F (stereo not drawn)
-1.1 | -15.0 | CCCc1cc(=O)oc2cc(OCC(=O)NC3CCCC3)c(Cl)cc12
0.3 | nt | C/C(=N\O)c1nnn(-c2cc(C(F)(F)F)cc(C(F)(F)F)c2)c1C
1.6 | nt | COc1ccc(-c2c(C#N)c(N)nc3sc(C(=O)Nc4ccc(Br)cc4)c(N)c23)cc1OC
nt | -14.0 | COc1ccc(N2CCN(c3cc(=O)n4oc(C)cc4n3)CC2)cc1
2.4 | nt | CSc1cc(-c2ccc(Cl)cc2)nc(-c2ccco2)c1
nt | -29.0 | COc1ccc(/C=N/NC2=NS(=O)(=O)c3ccccc32)cc1
-4.0 | 22.0 | O=C1CN=C(Nc2ccc(F)cc2)N1C1CCCC1
nt | -4.0 | N#Cc1cccc(NC(=O)CSc2nc3cc(S(=O)(=O)N4CCCCC4)ccc3o2)c1
nt | 4.0 | COC(=O)c1ccc2c(c1)N(Cc1ccccc1F)C(=O)CS2=O (stereo not drawn)
nt | -22.0 | Cc1nn(-c2ccccc2)c2c1-c1sc(C(=O)NC3CC3)cc1CC2
-7.9 | nt | CCOC(=O)c1cc(OC)ccc1C#N
-2.5 | nt | O=C(Oc1ccc(F)cc1)c1ccccc1Cl
nt | 13.0 | O=C(NC1CCCC1)c1cc(-c2ccc(O)cc2)on1
-2.5 | 0.0 | O=C1CC(n2nc(Nc3ccccc3)n(-c3ccccc3)c2=S)C2COC1O2 (stereo not drawn)
nt | -3.0 | N#Cc1ccccc1COC(=O)c1nc(-c2ccccc2)n(-c2ccccc2)n1
nt | -18.0 | CCc1ccc2c(c1)C1CC(C)(NC(=S)N1)O2 (stereo not drawn)
-1.8 | nt | Cc1nn(-c2ccccc2)nc1C(=O)NCC1CC1
nt | 2.0 | Cc1nnnn1CC(=O)Nc1ccccc1
4.2 | 17.0 | Cc1cc(C)cc(OC(=O)CCN2C(=O)c3ccccc3C2=O)c1
-1.8 | -8.0 | O=c1[nH]c(CN2CCCCC2)nc2ccccc12
1.6 | nt | CC1CC(=O)NN=C1c1cccs1 (stereo not drawn)
nt | 11.0 | O=C(O)CCCC(=O)N1CCN(C(c2ccccc2)c2ccccc2)CC1
nt | -5.0 | O=C(CSc1nc2c(sc3ccccc32)c(=O)n1-c1ccccc1)NCc1ccco1
nt | 14.0 | Cc1ccc(C)c(NC(=O)Cn2ncc3ccccc32)c1
0.6 | -4.0 | CN1C(=O)/C(=C2\SC(=S)N(C3CCS(=O)(=O)C3)C2=O)c2cc(Br)ccc21 (stereo not drawn)
-2.8 | nt | O=c1c(S(=O)(=O)c2ccccc2)c(O)cc(-c2ccccc2)n1-c1ccccc1
8.2 | nt | Cc1ccnc(S/C=C/C(=O)c2ccccc2)n1
-1.1 | -12.0 | N#Cc1cnc(SCCc2ccccc2)nc1N
nt | 6.0 | Cc1c2cnn(-c3ccccc3)c(=O)c2c(C)n1CCCC(=O)NC(C)C
2.2 | 4.0 | CCCCn1c(SCC(=O)NCc2ccco2)nc2ccccc2c1=O
nt | 0.0 | CCNCc1ccc(N(C)C)cc1
nt | -6.0 | CCOc1cc(/C=C2/NC(=O)N(c3ccccc3)C2=O)cc(Br)c1O
26.0 | 13.0 | O=C(O)c1ccc(N2N=C(C(F)(F)F)/C(=C/c3ccc(-c4ccc5c(c4)C(=O)NC5=O)o3)C2=O)cc1
15.8 | -1.0 | CC1CC(C)CN(C(=O)Cn2c(SCC(=O)N(C(C)C)C(C)C)nc3ccccc32)C1 (stereo not drawn)
5.0 | 8.0 | CC1=C(C(=O)N(C)C)C(c2ccccc2)NC(=S)N1 (stereo not drawn)
1.1 | nt | CSc1nn(-c2ccccc2)cc1C(=O)Oc1ccc(Cl)cc1
nt | -4.0 | CCC1Cc2c(nc3c4c(nc(N5CCOCC5)c(C#N)c24)NC(C)=N3)O1 (stereo not drawn)
nt | 12.0 | C=CCSc1nc2ccccc2n1CN1CCCC(C(N)=O)C1 (stereo not drawn)
-1.2 | 17.0 | Cc1ccc(NC(=O)C(NS(=O)(=O)c2ccc3nc(C)sc3c2)C(C)C)cc1 (stereo not drawn)
6.5 | 6.0 | CNC(=O)c1ccc(OC(C)=O)cc1
-0.1 | -12.0 | O=C(NC1CC1)c1ccc(CS(=O)c2ccccc2)o1 (stereo not drawn)
nt | -26.0 | CN(C1=NS(=O)(=O)c2ccccc21)c1ccccc1
-2.2 | nt | Fc1cccc(Cl)c1Cn1nnc(N2CCCCC2)n1
nt | 11.0 | O=C(Cc1n[nH]c(=O)c2ccccc12)N/N=C/c1ccncc1
nt | 22.0 | CC1=CC(C)(C)N(C(=O)CSc2nnc(-c3ccccc3)o2)c2ccccc21
8.9 | 16.0 | O=C(/C=C/c1ccccc1)CC(O)(c1ccccc1)C(F)(F)F (stereo not drawn)
nt | -1.0 | CNC(=S)Nn1cnc2ccccc21
-2.0 | -4.0 | CS(=O)(=O)N(CCc1ccccc1)CC(=O)N1CCCC1
nt | 9.0 | COc1cc(CO)ccc1OCC(=O)N1c2ccccc2CC1C (stereo not drawn)
nt | -8.0 | COc1cc(/C=C/C(=O)OCc2cn3cc(Cl)ccc3n2)ccc1O

In a second layout: two of the compounds above
| Molecule | MgrA DNA FP | S aureus helic |
| --- | --- | --- |
| CCS(=O)(=O)N1Cc2ccccc2CC1C(=O)OCC(=O)Nc1ccc(C(F)(F)F)cc1 (stereo not drawn) | nt | -1.0 |
| CN(C)S(=O)(=O)c1ccccc1 | 3.8 | -13.0 |

Of the compounds above, these have bromine:
MgrA DNA FP | S aureus helic | Molecule
-4.8 | 8.0 | CCCc1noc2c1C(c1cc(Br)ccc1F)C(C#N)=C(N)N2 (stereo not drawn)
-1.4 | 3.0 | CCn1nc(C)c(N=Cc2ccc(N(C)C)c(Br)c2)c1C
1.6 | nt | COc1ccc(-c2c(C#N)c(N)nc3sc(C(=O)Nc4ccc(Br)cc4)c(N)c23)cc1OC
0.6 | -4.0 | CN1C(=O)/C(=C2\SC(=S)N(C3CCS(=O)(=O)C3)C2=O)c2cc(Br)ccc21 (stereo not drawn)
nt | -6.0 | CCOc1cc(/C=C2/NC(=O)N(c3ccccc3)C2=O)cc(Br)c1O

From PubChem BioAssay

Some of the compounds tested (hit frequency here may not be typical).
